# Assay outcomes: PubChem BioAssay, Southern Research Institute
# Mtb H37Rv: Confirmatory growth inhibition assay against Mycobacterium tuberculosis H37Rv, potency (AID 1949). most inactive calls were filed without a number and no value below 0 was filed. one-dose inhibition, % at 10 µg/mL; IC50 in µg/mL for titrated hits. hit rate 1.6% among 100,000;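 active = confirmed in a dose series; inconclusive = about 50% or more but not retested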;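 also: bacteria grown 7 days with compound before Alamar blue readout; 0% = untreated bacteria and 100% = reference antibiotic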
# * hit, by the source's call; i = inactive; u = inconclusive.
SMILES,Mtb H37Rv
COc1ccc(-n2c(SCc3ccc([N+](=O)[O-])cc3)nnc2-c2ccncc2)cc1,5.1%
OCCOCCNC(=S)Nc1ccccc1,2.9%
Cc1ccccc1NC(=O)C1CCN(S(=O)(=O)c2cc(Cl)ccc2Cl)CC1,i
CCn1c2ccccc2c2cc(NC(=O)Cc3ccccc3OC)ccc21,i
CCC(CC)c1nnc(NC(=O)c2cc(OC)cc(OC)c2)s1,i
Cc1ccc(OCC(=O)Nc2ccncc2)cc1,i
CCCOc1ccccc1NC(=O)CC1Nc2ccccc2NC1=O (stereo unspecified),4.6%
CC(CS(=O)O)C(=O)Nc1ccccc1 (stereo unspecified) (tested in a mixture with another compound),0.7%
COc1ccc(C(=O)NC(=S)Nc2nc(-c3ccc(Cl)cc3)cs2)cc1OC,0.1%
O=C(Nc1ccc(S(=O)(=O)N2CCOCC2)cc1)c1ccc(Br)o1,i
CCN(CC)CCN1C(=O)C(O)=C(C(=O)c2cccs2)C1c1ccccc1OC (stereo unspecified),i
COC(=O)CN(c1ccc(Cl)c(C(F)(F)F)c1)S(C)(=O)=O,i
COc1ccc(CNC(C)C)cc1OC,i
O=C(Nc1ccccc1)c1ccccc1NC(=S)NC(=O)C1CCCCC1,i
CCOC(=O)Cc1c(C)nc2cc(C)nn2c1C,i
N/C(Cc1cccc2ccccc12)=N\OC(=O)c1cccc(Cl)c1,i
COC(=O)Cc1ccc(NC(=S)N2CCN(c3cccc(OC)c3)CC2)cc1,i
Cc1ccccc1N(CC(=O)N1CCCCC1)S(C)(=O)=O,i
COc1ccc(C(=O)NC(=S)N2CCCc3ccccc32)cc1OC,i
CCCCS(=O)(=O)Nc1ccc(C(=O)NCC2CCCO2)cc1 (stereo unspecified),i
CCOc1ccc(Nc2cc(C)nc3ccc(C(=O)OC)cc23)cc1,3.71µg/mL*
CCCCC1(C)NC(=S)N(c2ccc(Cl)cc2)N1 (stereo unspecified),45.0%
C=CCN1C(=S)N(c2ccc(F)cc2)C2CS(=O)(=O)CC21 (stereo unspecified),i
Cc1nnc(SCC(=O)Nc2ccc(Oc3ccc(Cl)cc3)cc2)s1,6.3%
COc1ccc(C(=O)CSc2ncn(-c3ccccc3)n2)cc1OC,0.7%
SMILES,Mtb H37Rv
O=S(=O)(Nc1ncccn1)c1ccc(NC(=S)N2CCN(c3cccc(C(F)(F)F)c3)CC2)cc1,i
O=C(O)Cn1nc2c3c(cccc3c1=O)-c1ccccc1-2,1.1%
Cc1ccccc1NC(=O)CN1C(=O)CSc2ccccc21,i
COc1ccc(S(=O)(=O)Nc2ccc(S(=O)(=O)NC(=O)c3ccccc3)cc2)cc1OC,i
CC(=O)OC(COc1ccc(Cl)cc1)Cn1cnc2ccccc21 (stereo unspecified),7.9%
COc1ccc(N(CC(=O)NC2CCCCCC2)S(C)(=O)=O)cc1OC,i
O=C(NCCCO)NCC12CC3CC(CC(C3)C1)C2,i
O=S(=O)(Cc1ccc(Cl)cc1)Nc1ccc(S(=O)(=O)N2CCCC2)cc1,i
CNc1oc(COc2ccc(Cl)cc2)nc1C#N,i
CCCCn1c(CCC(=O)O)ccc1-c1cccs1,i
Cn1c(SCCOc2ccc(Cl)cc2)nc2ccccc21,7.5%
CCC1=NN(C(=O)c2cccc(O)c2)C(O)(C(F)(F)F)C1 (stereo unspecified),8.2%
CCCn1c(SCC(=O)Nc2cccc(Cl)c2C)nnc1-c1ccc(Cl)cc1,i
CCCNC(=O)c1cc(Cl)cc(Cl)c1NC(=O)c1ccc(OC)cc1,i
Cc1occc1C(=O)n1cnc2ccccc21,i
O=C(Nc1ccc(C(F)(F)F)cc1)Nc1ccccc1[N+](=O)[O-],0.8%
O=C(CN1C(=O)c2ccc(Br)cc2C1=O)OC1CCCCC1,i
Cc1ccccc1Cn1c(Oc2ccc(F)cc2)nc2c1c(=O)n(C)c(=O)n2C,2.6%
COC(=O)c1cc(OC)c(OC)cc1NC(=O)COc1ccccc1OC,6.1%
Cc1cccc(Nc2nc(-c3cccs3)cs2)n1,i
Cc1nn(CC(=O)Nc2ccc(C(=O)N(C)C)cc2)c(=O)c2ccccc12,i
COC(=O)c1ccc(NC(=O)CSc2nnc(C)s2)cc1,6.2%
O=C(Nc1nnc(C2CCCO2)s1)c1cc2ccccc2o1 (stereo unspecified),i
Cc1c(N)cc(C(=O)N2CCOCC2)cc1[N+](=O)[O-],i
NC1=NC(=Nc2cc(Cl)cc(Cl)c2)c2ccccc21,i
SMILES,Mtb H37Rv
CS(=O)(=O)N(CC(=O)Nc1cccc2ccccc12)c1ccc(I)cc1,i
CCc1nnc(NC(=O)c2c(C)c(-c3ccc(Cl)cc3)nc3ccccc23)s1,i
COC(=O)c1ccc(OC(=O)C23CCC(C)(C(=O)C2)C3(C)C)cc1 (stereo unspecified),i
O=C1CNCC(=O)N1CCc1ccccc1,i
CCOc1ccc(C(O)Cc2nc3ccccc3n2C)cc1 (stereo unspecified),0.9%
Cc1ccccc1C(=O)NC(C)c1ccc2ccccc2c1 (stereo unspecified),10.1%
CCOC(=O)c1c(NC(=O)c2cccc(Cl)c2)sc(C(N)=O)c1C,i
O=C1CC(NCCc2ccccc2F)C(=O)N1c1ccc(Cl)cc1 (stereo unspecified),i
O=C(Nc1ccc(-c2nc3cc(Cl)ccc3c(=O)o2)cc1)c1ccco1,u
O=C(Cc1ccccc1)Nc1scc(-c2ccccc2)c1C(=O)N1CCOCC1,i
NS(=O)(=O)c1ccc(NC(=O)CC2c3ccccc3Oc3ccccc32)cc1,i
Cc1cc(NC(=O)c2ccc(C(=O)Nc3cc(C)c(O)c(C)c3)cc2)cc(C)c1O,i
CCCn1nnnc1NC(=O)COc1ccc(Br)cc1,15.9%
O=[N+]([O-])c1ccc(Cc2c(F)cc(F)cc2F)cc1,0.5%
Cc1cccc(NC(=O)CCC(=O)O)c1,i
Cc1ccc(-n2ncc3c(NC(C)C)ncnc32)c(C)c1,5.5%
O=S(=O)(/N=C(/Nc1ccccc1Cl)c1ccccc1)c1ccccc1,i
CCOC(=O)Cc1c(C)nc2c(-c3ccc(Cl)cc3)c(C)[nH]n2c1=O,u
Cc1cc2c3c(c1C)C1(C(=O)N3C(C)(C)CC2C)C(C#N)=C(N)OC2=C1C(=O)CC(C)(C)C2 (stereo unspecified),i
CCOc1ccc(NC(=O)CN(C2CCCCC2)S(C)(=O)=O)cc1,i
Cn1c(=O)[nH]c(=O)c2c1nc(NCCCN1CCOCC1)n2CCCc1ccccc1,i
CCC(=O)Nc1ccc(Cl)c(NC(=S)NC(=O)c2c(OC)cccc2OC)c1,i
CCOC(=O)N1CCN(C(=O)CN(c2ccc(OC)c(OC)c2)S(=O)(=O)c2ccc(C)cc2)CC1,i
CC1CCc2c(sc3ncn(Cc4cccc(Cl)c4)c(=O)c23)C1 (stereo unspecified),3.2%
CCOc1ccccc1C(=O)Nc1cc([N+](=O)[O-])ccc1C,i

# Grouped by structure: those above containing a CF3 group
SMILES,Mtb H37Rv
COC(=O)CN(c1ccc(Cl)c(C(F)(F)F)c1)S(C)(=O)=O,i
O=S(=O)(Nc1ncccn1)c1ccc(NC(=S)N2CCN(c3cccc(C(F)(F)F)c3)CC2)cc1,i
CCC1=NN(C(=O)c2cccc(O)c2)C(O)(C(F)(F)F)C1 (stereo unspecified),8.2%
O=C(Nc1ccc(C(F)(F)F)cc1)Nc1ccccc1[N+](=O)[O-],0.8%

# Later entries.
SMILES,Mtb H37Rv
O=C1Nc2ccccc2C12Nc1ccccc1S2 (stereo unspecified),i
COc1ccc(/C(N)=N/OC(=O)C2CCC(=O)N2S(=O)(=O)c2ccc(C)cc2)cc1OC (stereo unspecified),i
CC12CCC(C(=O)NCc3ccc(Cl)cc3)(OC1=O)C2(C)C (stereo unspecified),i
O=C(CCOc1ccccc1)NNC(=O)COc1ccccc1,i
COc1ccccc1N(CC(O)CN1CCCC1)S(=O)(=O)c1ccccc1 (stereo unspecified),i
CSCCNC(=O)c1cccc(Cl)c1,i
CCn1c(SCC(=O)Nc2ccc(Cl)c(Cl)c2)nnc1-c1cccnc1,2.4%
COc1cc(C=O)cc(Br)c1OC(=O)C12CC3CC(CC(C3)C1)C2,6.3%
COc1ccc(-c2cc(C(=O)NC(Cc3ccccc3)C(=O)O)c(C)o2)cc1OC (stereo unspecified),i
COc1cc2c3c(c1)C(C)=CC(C)(C)N3C(=O)C2=O,15.1%
C=CCc1ccc(OCCN2CCc3ccccc3C2)c(OC)c1,i
CC(C)CCNS(=O)(=O)c1ccc(Br)cc1,i
CN(Cc1ccccc1)c1nc(-c2ccc([N+](=O)[O-])cc2)nc2ccccc12,0.8%
CCCc1ccc(OC(=O)c2cc3ccccc3oc2=O)cc1,22.4µg/mL*
CCOc1ccc(S(=O)(=O)N(C)C)cc1,3.0%
COC(=O)c1ccc(NC(=O)CN(Cc2cccc(C)c2)S(=O)(=O)c2ccc(Cl)cc2)cc1,40.8%
COc1ccc(C(=O)NCc2ccncc2)cc1,i
Cc1c(C(=O)NC(=S)Nc2cccc(C(=O)O)c2)cccc1[N+](=O)[O-],i
COc1ccc(N2C(=O)CC(N(C(C)=O)c3ccc(OC)cc3)C2=O)cc1 (stereo unspecified),i
O=C(Cc1ccccc1)NCCNC(=O)Cc1ccccc1,i
COc1cccc(C(=O)COc2ccc3c(c2)oc(=O)c2ccccc23)c1,i
COC(=O)c1c(-c2ccc(C)cc2)csc1NC(=O)c1ccc(C)o1,i
CCN(c1ccccc1)S(=O)(=O)c1ccc(NC(=O)Cc2ccccc2)cc1,i
CN1CCN(CCCCOc2ccc(Cl)cc2C(C)(C)C)CC1,i
COC(=O)c1sccc1NC(=O)c1cccc([N+](=O)[O-])c1,i
SMILES,Mtb H37Rv
O=C(Oc1cccc2cccnc12)c1ccc(Cl)c(S(=O)(=O)N2CCOCC2)c1,1.48µg/mL*
COc1ccc2c3c(c(=O)oc2c1C)CCCC3,5.7%
CC(=O)Nc1ccc(NS(=O)(=O)c2cc(Cl)ccc2Cl)cc1,i
CC(C)Oc1ccc(N2CC(C(=O)NC3=NCCS3)CC2=O)cc1 (stereo unspecified),i
Cc1cc2ncn(C(=O)N3CCCCCC3)c2cc1C,i
O=C(CC1(O)C(=O)Nc2ccccc21)c1cccc(-n2cccc2)c1 (stereo unspecified),i
CCSc1ccccc1C(=O)Nc1nnc(Cc2ccc(OC)cc2)s1,i
COc1ccc(Cc2nc(=S)[nH][nH]2)cc1Br,i
Cc1cccc(OCCn2c(CO)nc3ccccc32)c1,4.0%
COc1ccc(C(C)NC(=O)c2ccccc2F)cc1OC (stereo unspecified),i
CC(=O)Nc1ccccc1NC(=O)c1cc(Br)ccc1Cl,0.5%
O=C(NC1CCCC1)c1ccccc1-c1ccccc1,u
Cc1ccccc1C(=O)NCc1nnc(SCC(=O)NC2CCCCC2C)n1C (stereo unspecified),i
COc1cc(OC)cc(N2C(=O)CC(N3CCN(c4ccccc4)CC3)C2=O)c1 (stereo unspecified),i
CCn1c(SCC(=O)c2ccccc2)nnc1-c1cccnc1,i
Cc1cc(Br)cc(C)c1OCCCCN(C)Cc1ccccc1,i
CCC1(C)Cc2ccccc2-c2nc3n(c(=O)c21)CC(c1ccccc1)S3 (stereo unspecified),2.6%
Cc1ccc(CSCCNC(=O)c2ccc(F)cc2)cc1,i
S=C(NCc1ccco1)Nc1cc(Cl)c(Cl)cc1Cl,i
O=[N+]([O-])c1cccc(Cn2cc(Cl)cn2)c1,i
O=C(NCCN1CCOCC1)C(=O)NC1CC1,i
COc1cccc(C2=CC(c3ccc(SC)cc3)n3nnnc3N2)c1 (stereo unspecified),1.6%
CC(C)N(Cc1nc(-c2ccccc2)no1)C(=O)CN(C)S(=O)(=O)c1ccccc1,i
CCOC(=O)c1c(-c2ccccc2)csc1NC(=O)c1sc2cc(F)ccc2c1Cl,2.2%
C=CCn1c(SCC(=O)N(C)C)nc2scc(-c3ccc(F)cc3)c2c1=O,i

# 3 structures from above, arranged by molar mass, high to low.
SMILES,Mtb H37Rv
COc1cccc(C2=CC(c3ccc(SC)cc3)n3nnnc3N2)c1 (stereo unspecified),1.6%
CC(C)Oc1ccc(N2CC(C(=O)NC3=NCCS3)CC2=O)cc1 (stereo unspecified),i
Cc1cc2ncn(C(=O)N3CCCCCC3)c2cc1C,i

# Structures listed so far that have fluorine, in the order listed:
SMILES,Mtb H37Rv
COC(=O)CN(c1ccc(Cl)c(C(F)(F)F)c1)S(C)(=O)=O,i
C=CCN1C(=S)N(c2ccc(F)cc2)C2CS(=O)(=O)CC21 (stereo unspecified),i
O=S(=O)(Nc1ncccn1)c1ccc(NC(=S)N2CCN(c3cccc(C(F)(F)F)c3)CC2)cc1,i
CCC1=NN(C(=O)c2cccc(O)c2)C(O)(C(F)(F)F)C1 (stereo unspecified),8.2%
O=C(Nc1ccc(C(F)(F)F)cc1)Nc1ccccc1[N+](=O)[O-],0.8%
Cc1ccccc1Cn1c(Oc2ccc(F)cc2)nc2c1c(=O)n(C)c(=O)n2C,2.6%
O=C1CC(NCCc2ccccc2F)C(=O)N1c1ccc(Cl)cc1 (stereo unspecified),i
O=[N+]([O-])c1ccc(Cc2c(F)cc(F)cc2F)cc1,0.5%
COc1ccc(C(C)NC(=O)c2ccccc2F)cc1OC (stereo unspecified),i
Cc1ccc(CSCCNC(=O)c2ccc(F)cc2)cc1,i
CCOC(=O)c1c(-c2ccccc2)csc1NC(=O)c1sc2cc(F)ccc2c1Cl,2.2%
C=CCn1c(SCC(=O)N(C)C)nc2scc(-c3ccc(F)cc3)c2c1=O,i

# (further entries)
SMILES,Mtb H37Rv
NC(=O)c1ccc(NC(=O)Nc2ccc(F)cc2F)cc1,i
O=C(CSc1nnc(-c2ccc(Br)cc2)o1)c1ccc(Oc2ccccc2)cc1,1.2%
COc1ccc2nc(N3CCOCC3)[nH]c2c1,i
COc1ccccc1OCCCCOc1ccccc1OC,i
CCOc1ccccc1OCCOCCOc1cccc2cccnc12,i
CCCCc1cc(=O)oc2c(C)c(OCC(N)=O)ccc12,i
NC(=O)C1(N2CCCCC2)CCN(C2CC(=O)N(Cc3cccs3)C2=O)CC1 (stereo unspecified),2.3%
COc1ccc(-c2csc(NC(=S)NC(=O)c3cc(OC)c(OC)c(OC)c3)n2)cc1OC,i
CC1(C)Cc2c(sc3nc(SCC(=O)Nc4ccc(Br)cc4)nc(N)c23)CS1,6.22µg/mL*
COc1ccccc1C/C(N)=N/OC(=O)COc1cc(C)cc(C)c1C,i
CN(C)CCOCc1ccccc1,1.9%
Cc1csc(NS(=O)(=O)c2ccc(C)c([N+](=O)[O-])c2)n1,i

# Not all compounds are listed. The share of hits here may be higher or lower than overall.
